Cruzain Triton – inhibitors of Trypanosoma cruzi cruzain with detergent | Potency, µM, inactives show max response, negative = inhibition, most hits filed as inhibitors | P25779 | purified cruzain, Z-FR-AMC fluorescence, 0.01% Triton | 200,000 tested, 0.43% active; active = well fitted curve in the direction sought with a large enough effect; inconclusive = small, poorly fitted or top-dose-only effect, or another doubt; inactive = no such curve, though single readings can be large; an effect the other way counts as inactive or inconclusive;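 also: plate controls were neutral wells for no effect and buffer without enzyme for full effect; nearly all actives have a fitted effect of over 40% in size; top concentration of the series not given in the record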
Target sequence (P25779 123-467 limits assumed): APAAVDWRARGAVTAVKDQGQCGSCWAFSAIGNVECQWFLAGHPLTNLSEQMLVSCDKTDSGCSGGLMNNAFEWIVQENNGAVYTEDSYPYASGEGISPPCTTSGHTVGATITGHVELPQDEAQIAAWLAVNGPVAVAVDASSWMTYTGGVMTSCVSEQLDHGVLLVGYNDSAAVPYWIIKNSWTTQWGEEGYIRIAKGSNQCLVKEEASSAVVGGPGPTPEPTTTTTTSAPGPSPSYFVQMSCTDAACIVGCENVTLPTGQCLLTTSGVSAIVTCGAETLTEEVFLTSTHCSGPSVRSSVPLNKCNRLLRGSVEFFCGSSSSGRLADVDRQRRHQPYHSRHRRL
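Purified cruzain (1.5 nM final) was preincubated with compounds for 15 min at room temperature in 100 mM sodium acetate pH 5.5, 5 mM DTT, 0.01% Triton X-100. Reaction started with 2 uM Z-FR-AMC; AMC fluorescence change over 60 s gave activity.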
Marburg entry inh – blocks Marburg virus binding to or entry into cells; AID 540276; Potency, µM (series often up to 37.8 µM), for inactives: at the highest dose activity change, negative = inhibition, hits mostly inhibitors; Marburg virus pseudotyped entry inhibition, cell reporter; control for the full effect not named in the record; about a third of the inactives were read at about 46 µM; 300,000 tested, 1.8% active; active = well fitted inhibition curve with a large enough effect; inconclusive = small, poorly fitted or top-dose-only effect, or effect the other way; inactive = flat fitted curve, though single readings scatter; tested in HEK293 cells; about a fifth of its hits are not listed in these tables; also: % is scaled to controls: 0 for no effect and ±100 for the full control effect; luciferase read-out
RE007 growth inh – less growth of the S. pombe RE007 Vpr strain | S. pombe RE007 Vpr strain, BacTiter-Glo ATP luminescence, 24 h; control for the full effect not named in the record | Potency, µM (titrated, usually from 92.2 µM), for inactives: at the top dose activity change, negative = less growth | 360,000 tested, 0.21% active | AID 651644; active = well fitted falling curve with a large enough effect; inconclusive = small, poorly fitted or top-dose-only effect; inactive = no such curve, though single readings can be large or run the other way;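 also: % is scaled to controls: 0 for no effect and ±100 for the full control effect; nearly all actives have a fitted effect of over 50% in size; the assay follows cell death caused by Vpr and the record does not say whether a fall means rescue or toxicity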
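Fission yeast RE007 carrying one integrated HIV-1 vpr copy, seeded at OD 0.01 in PMG+AL medium with 23 nL pinned compound. Grown 24 h at 30 degrees; viability read by BacTiter-Glo luminescence after 5 min.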
LASV entry inh – Lassa virus entry inhibition; Lassa virus pseudotype entry inhibition, cell reporter; control for the full effect not named in the record; Potency, µM (highest dose often 37.9 µM), without a hit: top-dose activity change, negative = inhibition, hits mostly inhibitors; 300,000 tested, 1.2% active; active means well fitted inhibition curve with a large enough effect; inconclusive means small, poorly fitted or top-dose-only effect, or effect the other way; inactive means flat fitted curve, though single readings scatter; tested in HEK293 cells; also: % is scaled to controls: 0 for no effect and ±100 for the full control effect; nearly all actives have a fitted effect of over 50% in size; luciferase read-out
Cruzain noTriton – cruzain (T. cruzi) inhibition without detergent. purified cruzain, Z-FR-AMC fluorescence, no detergent. Potency, µM, for inactives: max response, negative = inhibition, actives largely listed as inhibitors. 200,000 tested, 2.3% active. AID 1476; active = well fitted curve in the direction sought with a large enough effect; inconclusive = small, poorly fitted or top-dose-only effect, or another doubt; inactive = no such curve, though single readings can be large; an effect the other way counts as inactive or inconclusive;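 also: plate controls were enzyme without inhibitor for no effect and buffer without enzyme for full effect; nearly all actives have a fitted effect of over 40% in size; top concentration of the series not given in the record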
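Purified cruzain at 1.5 nM, pre-incubated 15 min with compound at room temperature in 100 mM sodium acetate pH 5.5, 5 mM DTT, 0.00005% Triton X-100. Reaction started with 2 uM Z-FR-AMC; AMC fluorescence increase over 60 s gives rate.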
SARS PLpro yeast – SARS-CoV PLP inhibition in yeast. Potency, µM (series often up to 32.9 µM), inactives show at the highest dose activity, positive = growth rescue. 330,000 tested, 0.19% active. AID 485353. S. cerevisiae expressing SARS-CoV PLpro, growth rescue; control for the full effect not named in the record; also: 0% is about no effect; nearly all actives have a fitted effect of over 55% in size; growth read by luminescence after 48 h
StopGo reporter – lowers the luciferase signal of an FMDV 2A StopGo reporter | AID 1159524 | Potency, µM (top dose mostly 57.9 µM), for inactives: top-dose signal change, negative = less light | 410,000 tested, 1.2% active | human cells with a luciferase reporter of 2A StopGo recoding; control for the full effect not named in the record; active = well fitted falling curve with a large enough effect; inconclusive = small, poorly fitted or top-dose-only effect; inactive = no such curve, though single readings can be large or run the other way; tested in HEK293T cells; also: % is scaled to controls: 0 for no effect and ±100 for the full control effect; nearly all actives have a fitted effect of over 45% in size; luciferase light after 4 h
NS1 inh – inhibitors of influenza NS1 protein function | S. cerevisiae slowed by influenza A NS1, growth recovery by OD600 | Potency, µM (series often up to 46.1 µM), for inactives: at the highest dose activity, positive = more growth | 270,000 tested, 0.4% active; also: actives are rising curves; nearly all actives have a fitted effect of over 50% in size
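A cell-based growth assay was used: compounds that relieve NS1-induced slow growth of budding yeast raise OD600. Assay medium was yeast nitrogen base with ammonium sulphate and -URA supplement, pH 6.0, with 2% galactose.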
An asterisk follows results filed as active; u = inconclusive; x = no result given; & = joins results of further samples; [ ] = another dose, or the depositor's remark. Unless noted, calls follow the shape of the dose curve; as a rule, active means well fitted rising curve with a large enough effect; inconclusive means small, poorly fitted or top-dose-only effect; inactive means no such curve, though single readings can be large or run the other way. Potency is read from the fitted curve at half-maximal effect. Compounds were not picked by outcome; any-hit rate near 4.7%.

SMILES	Cruzain Triton	Marburg entry inh	RE007 growth inh	LASV entry inh	Cruzain noTriton	SARS PLpro yeast	StopGo reporter	NS1 inh
COc1ccc(CCNC(=O)/C(C#N)=C/c2ccc(OCC(=O)NCC3CCCO3)cc2)cc1OC (stereo unspecified)	x	-22%[14.2 µM]	-5%	7%	x	0%	u	-1%
Cc1cccc(CN2C3=NCCCN3c3ccccc32)c1	x	x	-17%	x	x	0%	0%	4%
Cc1ccc(S(=O)(=O)N(CC2CO2)c2cc(Cl)ccc2Cl)cc1 (stereo unspecified)	x	u	17%	u	x	-2%	-9%	-4%
CCOc1ccc(NC(=O)CN2CCN(CC(=O)Nc3ccc4c(c3)OCCO4)CC2)cc1	0.4%	u	8%	-2%	-1%	-2%	-15%	-5%
Cc1ccc(CNC(=O)COc2cc(O)c3c(c2)OC(C)(C)CC3=O)cc1	x	x	-6%	x	x	-18%	-7%	-36%
O=C1c2ccccc2C(=O)N1CC(O)CN1CCOCC1 (stereo unspecified)	-0.4%	3%	-8%	0%	1%	17%	12%	7%
Cc1ccccc1-c1ncc(CN2CCN(C3CCCC3)C(CCO)C2)cn1 (stereo unspecified)	x	x	9%	x	x	1%	-7%	5%
Cc1cc(Cl)ccc1OCC(=O)N1CCCCC1	2.3%	-1%	-9%	16%	11%	-4%	35%[activator]	-15%
CN1CCN(C(c2ccccc2)c2sc3nc(-c4ccco4)nn3c2O)CC1 (stereo unspecified)	-1.5%	x	x	-5%[46.1 µM]	-3%	x	-9%	x
Cc1ccc(CCNC(=O)c2ccc(CS(=O)(=O)Cc3cccc(C)c3)o2)cc1	-2.1%	x	x	-10%[46.1 µM]	20%	x	u	x
CCOc1ccc(CCNC(=O)c2c3c(nc4ccccc24)C(=O)N(C2CCCCC2)C3)cc1	-3.1%	x	x	-23%[46.1 µM]	u	x	-3%	x
C/C(=N\NC(=S)NC1CCCCC1)c1cccs1	x	u	1%	-14%	x	-4%	14%	-34%
Cc1nnc(N2CCOCC2)c2ccccc12	-0.8%	u	1%	8%	-2%	9%	-16%	15%
COc1ccc(NC(=O)c2cc(S(=O)(=O)N3CCOCC3)ccc2OC)cc1	-1.2%	x	x	-5%[46.1 µM]	12%	x	9%	x
COCC(C)n1c(C)cc(C(=O)CSc2ncccn2)c1C (stereo unspecified)	x	3%[46.1 µM]	7%	9%	x	0%	58%[activator]	x
CCOc1cc(/C=N\Nc2ccc([N+](=O)[O-])cc2)ccc1OCC(=O)Nc1ccc(C)c(C)c1	5.3%	0%	26%	0%	u	5%	-13%	14%
CCOc1ccc(-c2nnc3sc(COc4ccccc4)nn23)cc1	-1.8%	4%&4%	-11%	u	8%	-2%	-17%	-5%
NC(=O)c1cc(S(=O)(=O)NCCCc2ccco2)cs1	x	x	6%	x	x	-5%	2%	2%
S=C(c1ccc2c(c1)OCO2)N1CCN(c2cccc(Cl)c2)CC1	x	u	u	u	x	x	-9%	x
O=C(CNC(=O)c1ccc(Cl)cc1)OCn1nnc2ccccc2c1=O	x	14%	3%	6%	x	3%	4%	x
CC(Sc1nc(N)cc(=O)[nH]1)C(=O)Nc1nc2c(s1)CCCC2 (stereo unspecified)	x	-2%[46.1 µM]	-2%	0%[46.1 µM]	x	-2%	22%	2%
CC(C)(C)OC(=O)N1CCC(C(=O)O)CC1	6.6%	17%[46.1 µM]	-7%	2%	10%	9%	12%	6%
Cc1c(Cl)cccc1NC(=O)C(C)n1c(=O)cc(-c2ccccc2)c2c(C)nn(C)c21 (stereo unspecified)	-1.1%	x	x	18%[46.1 µM]	-3%	x	-17%	x
COC(=O)c1c(C)oc(C)c1S(=O)(=O)N(Cc1ccccc1)C(C)C	x	-3%	1%	2%	x	-1%	u	-9%
Cc1ccc2nsnc2c1NC(=O)COc1ccccc1F	x	20%[46.1 µM]	2%	1%	x	1%	-15%	-1%
Cc1ccc2c(c1)N(C(=O)CCC(=O)NCCN1CCOCC1)CC(C)O2 (stereo unspecified)	x	x	12%	x	x	2%	-23%	-11%
C=CCn1c(SCC(N)=O)nc2nc3c(cc2c1=O)COC(C)(C)C3	x	0%[46.1 µM]	5%	-3%	x	0%	13%	-1%
Cc1ccc(CN2CCN(C/C(Cl)=C/c3ccccc3)CC2CCO)o1 (stereo unspecified)	x	x	-4%	x	x	-2%	-20%	-2%
O=c1[nH]nc(N/N=C/c2ccccc2OC(F)F)c(=O)[nH]1	x	-6%[46.1 µM]	2%	-10%[46.1 µM]	x	0%	-11%	-2%
O=C1CCCc2c1nc(-c1ccccc1)n2O	-1.6%	9%	6%	-29%	6%	1%	1%	-9%
Cc1ccc(-n2ncc3c(=O)n(CC(=O)N(C)C)cnc32)cc1C	x	u	7%	1%[46.1 µM]	x	-2%	38%[activator]	1%
CN(C(=O)CCN1C(=O)c2ccccc2C1=O)c1ccccc1	x	x	-10%	x	x	-7%	16%	-1%
CCOP(=O)(OCC)C(O)c1cc(OC)c(OC)c(OC)c1 (stereo unspecified)	1.3%	-4%	-2%	6%	-5%	3%	1%	2%
C=CCN(CC=C)C(=O)Nc1ccc2nc(C)sc2c1	-2.9%	u	-20%	-4%	-4%	-2%	8%	-3%
O=c1oc2ccccc2n1CCn1c2ccccc2c2nc3ccccc3nc21	2.3%	u	8%	u	-13%	4%	-23%	11%
Cc1ccc(C(=O)N/C(=C\c2cn(S(=O)(=O)N(C)C)c3ccccc23)C(=O)NCCCN2CCOCC2)cc1	x	x	0%	x	x	u	-12%	1%
O=C(Nc1ccc(Nc2ccccc2)cc1)c1ccco1	-6.0%	u	u	-26%	-16%	-15%	31%[activator]	-24%
C=CCC(Nc1ccc(OC)cc1)C(=O)OCC (stereo unspecified)	5.1%	u	x	u	8%	x	x	x
COc1ccc(-c2noc(=O)n2Cc2ccccc2Cl)cc1	x	u	18%	-18%	x	0%	-8%	6%
CC(C)CCNC(=O)NC(=O)CSc1nnc(-c2ccccc2Br)o1	-6.1%	4%&22%	5%	2%	u	-1%	x	-45%
COc1ccc(-c2nnc3ccc(SCC(N)=O)nn23)cc1OC	1.6%	7%	15%	1%	1%	10%	17%	0%
CCOC(=O)c1cc(C#N)c(SCC(=O)O)[nH]c1=O	x	u	19%	5%	x	-2%	-1%	19%
O=C(Nc1ccncc1)Nc1cccc(F)c1	x	-8%[46.1 µM]	-5%	17%[46.1 µM]	x	-1%	-7%	-1%
CCn1cc(/C=N/O)c(C)n1	6.2%	19%[46.1 µM]	24%	23%	-9%	2%	-2%	-4%
Cc1cccc(N2CC(C(=O)Nc3nnc(SCC(=O)Nc4nccs4)s3)CC2=O)c1 (stereo unspecified)	-3.4%	0%	4%	5%	6.3µM*	-15%	-10%	12%
Cn1c(CN2CCN(C(=O)c3ccccc3)CC2)nc2cc([N+](=O)[O-])ccc21	-6.4%	37%	-15%	u	-6%	7%	1%	1%
Cc1ccccc1CCNC(=O)c1cc2ccccn2n1	-0.4%	x	x	3%[46.1 µM]	4%	x	27%	x
CCCCC(=O)Nc1ccc(NC(=O)c2cnccn2)cn1	x	x	13%	x	x	-1%	24%	2%
N#Cc1c(/N=C\c2ccc(O)c([N+](=O)[O-])c2)sc2c1CCCC2	x	x	-14%	x	x	-2%	21%	1%
CNc1nc(-c2ccccc2)[n+](-c2ccc(C)cc2)s1	-6.0%	3%	1%	27%	9%	u	4%	-9%
CN(C)C=NC(=O)c1cc(C(=O)c2ccc(Cl)cc2)c[nH]1	x	28%[46.1 µM]	98%	-2%	x	1%	23%	3%
CC1CCC(NCC(=O)Nc2cccc(S(N)(=O)=O)c2)CC1 (stereo unspecified)	x	u	-10%	12%[46.1 µM]	x	-6%	-16%	x
O=C(CNC(=O)c1ccc(Cl)cc1)c1ccccc1	x	u	14%	u	x	x	30%[activator]	x
Cc1ccc2[nH]c3c(=O)n(CCCN4CCN(C)CC4)cnc3c2c1	-5.7%	0%&0%	14%	15%	3%	3%&1%	3%	-9%&-3%
Cc1nc(NC(=O)c2ccco2)sc1-c1csc(Nc2ccc(Cl)cc2)n1	-2.1%	x	2%	x	13µM*	-6%	0%	u
COc1ccccc1/C=C/C(=O)NCC(=O)N/N=C/c1ccc(C)o1	x	-6%[46.1 µM]	-10%	3%	x	-2%	-4%	7%
CCc1nc(NC(=O)Cc2csc(C)n2)sc1C(=O)OC	x	x	2%	x	x	0%	15%	0%
S=C(NCCc1ccccn1)Nc1ccc(Cl)cc1	-5.1%	u	-9%	9%	3%	-1%	91%[activator]	3%
CCOc1c(C(=O)CC)cc2c(C)cc(=O)oc2c1C	-3.2%	8%	-27%	1%	1%	4%	3%	1%
CN(C)c1ccc(N=Nc2ccccc2C(=O)OCC(=O)N(C)C2CCCCC2)cc1	-3.1%	u	8%	u	12%	-14%	11%	-3%
Additional compounds:
SMILES	Cruzain Triton	Marburg entry inh	RE007 growth inh	LASV entry inh	Cruzain noTriton	SARS PLpro yeast	StopGo reporter	NS1 inh
Cc1nc(SCC(=O)CC(=O)OC(C)C)c(C#N)c(C)c1C	1.1%	-13%	2%	8%	4%	0%	10%	1%
Cc1ccc(S(=O)(=O)N2CCN(C(=O)COC(=O)Cc3cccc(C(F)(F)F)c3)CC2)c(C)c1	x	26%	-1%	-1%	x	-10%	-7%	x
CCn1ncc(/C=N\NC(=O)c2csc3ccccc23)c1C	-2.2%	-21%[46.1 µM]	0%	-8%	-6%	1%	40%[activator]	16%
O=C(c1ccccc1F)N1CCN(c2cnn(-c3cccc(Cl)c3)c(=O)c2Cl)CC1	x	-20%[46.1 µM]	-20%	u	x	-1%	u	x
COc1ccc(-c2onc(C)c2C)cc1S(=O)(=O)N(C)Cc1ccccc1	2.7%	x	x	-18%[46.1 µM]	5%	x	u	x
COc1ccccc1C(=O)NC(=O)CSc1nncn1C	x	1%	19%	20%	x	1%	-15%	x

Bioassay records (PubChem BioAssay)
